Bioassay records deposited in PubChem by Southern Research Institute.
Mtb growth: Confirmatory growth inhibition assay against Mycobacterium tuberculosis H37Rv, potency (AID 1949). most inactive calls were filed without a number and no value below 0 was filed. inhibition, % at 10 µg/mL; hits with a dose series show IC50 in µg/mL. 100,000 compounds, 1.6% hits;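 active = confirmed in a dose series; inconclusive = about 50% or more but not retested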;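 also: bacteria grown 7 days with compound before Alamar blue readout; 0% = untreated bacteria and 100% = reference antibiotic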
* = called active by the depositor; i = inactive; u = inconclusive.

mol	Mtb growth
CCOC(=O)c1c(-c2ccc(Br)cc2)csc1NC(=O)c1cccs1	i
Cc1ccc(NC(=S)NCCCO)c(C)c1	i
CCOC(=O)Cc1cc(=O)[nH]c(/N=C(\N)Nc2ccc(C)c(C)c2)n1	i
CCCn1nnc(NC(=O)c2sc3ccccc3c2Cl)n1	u
CCc1ccccc1OCc1nnc(N)s1	i
COc1ccc(Cc2nnc(SCC(=O)Nc3cc(F)ccc3C)n2C)cc1	i
CCOC(=O)c1c(NC(=O)CSc2n[nH]c(-c3ccncc3)n2)sc(C(C)=O)c1C	0.9%
CS(=O)(=O)N(CC(=O)Nc1ccc(Br)cc1)c1cc(Cl)cc(Cl)c1	0.1%
Cc1ccc(Cl)cc1N1CCN(C(=S)Nc2cccc([N+](=O)[O-])c2)CC1	2.8%
CNCCCOc1ccc(OCc2ccccc2)cc1	i
O=C(COc1ccccc1Cl)c1ccccc1	13.0%
CC(NS(=O)(=O)c1ccc(Cl)cc1)C(=O)Nc1cc(C(F)(F)F)ccc1Cl (stereo not drawn)	i
COc1ccccc1C(CCNCc1ccccc1)c1ccc2c(c1)OCO2 (stereo not drawn)	35.9%
COc1ccc(C(=O)Nc2ccc(Cl)cc2C)c(OC)c1	i
COc1ccc(NC(=S)NC(=O)c2cccc(C)c2C)cc1OC	i
CN(C)c1cccc(OCc2nnc(SCC(=O)NC34CC5CC(CC(C5)C3)C4)n2-c2ccccc2)c1	i
CC(NC(=O)c1ccco1)c1ccncc1 (stereo not drawn)	i
Cc1ccc(-c2nnc(Nc3ccc(O)cc3)c3ccccc23)cc1S(=O)(=O)NC(C)(C)C	6.8%
O=[N+]([O-])c1ccc(Sc2n[nH]c(-c3ccccc3)n2)nc1	10µg/mL*
CC1CN(C(=O)CCC2CCCCC2)CC(C)O1 (stereo not drawn)	i
CC(C)Cc1nnc(NC(=O)CC(c2ccccc2)c2ccccc2)s1	i
CCc1ccccc1NC(=O)c1ccccc1Sc1ccccc1[N+](=O)[O-]	i
CC(=O)c1ccc(NC(=O)CC2CCC2)cc1	i
O=C(CCn1nc(-c2ccc(Cl)cc2)c2ccccc2c1=O)N1CCCC1	i
O=C(NC(c1ccccc1)c1ccccc1)c1cccc2ccccc12	i
Cc1ccc(S(=O)(=O)N2CCN(Cc3ccccc3)CC2)c2nsnc12	u
O=C(c1cc2ncc(Br)cn2n1)N1CCc2ccccc2C1	0.3%
Cc1ccc(S(=O)(=O)NC2CCC(NS(=O)(=O)c3ccc(C)cc3)CC2)cc1 (stereo not drawn)	i
O=C(Nc1cc(Cl)ccc1C(=O)O)c1ccc(Cl)cc1Cl	i
Cc1ccccc1C(=O)Nc1ccc(Br)c(C)c1C	3.1%
CCOc1ccc(/C=C(/C#N)c2nc3ccccc3[nH]2)cc1I	i
CCOc1ccc(Br)cc1S(=O)(=O)NC(=O)c1ccccc1	i
COc1cccc(OC)c1C(=O)Nc1ccccc1C(=O)N1CCOCC1	i
CN1C(=O)c2ccc(C(=O)Nc3nc4ccccc4s3)cc2C1=O	1.1%
CCOC(=O)Cc1cnc(NC(=O)CSc2nncn2C)s1	i
O=C1c2ccccc2C(=O)N1S(=O)(=O)c1ccccc1	i
O=C(N1c2ccccc2Sc2ccccc21)C(F)(F)F	i
O=C(CN1CCOCC1)NNC(=S)Nc1ccc(Cl)cc1	i
Cc1cc(Cl)c(S(=O)(=O)NCc2cccnc2)cc1OCC(=O)NC1CCCCC1	i
CCNC(=O)Nc1ccccc1C(=O)OC	0.2%
C=CCCC(C)(C#CCN1CCCCC1)OC(C)=O (stereo not drawn)	i
O=C(CC(c1ccc(F)cc1)c1ccco1)Nc1nccs1 (stereo not drawn)	i
CCOC(=O)C1CCN(C(=O)Cc2ccc(OC)c(OC)c2)CC1	i
CSc1ccc(C(=S)N2CCN(C)CC2)cc1	1.3%
O=C(Cc1nc(-c2ccc(Cl)cc2)cs1)Nc1ccccc1	0.1%
COc1ccc(OCC(=O)Nc2cccc(C(=O)O)c2C)cc1	0.2%
CCOC(=O)C(C)Sc1ncnc2sc3c(c12)CCCC3 (stereo not drawn)	u
COc1cc(Cl)c(S(=O)(=O)N2CCCC(C)C2)cc1Cl (stereo not drawn)	i
CCCCC(=O)Nc1ccc(C(=O)N2CCc3ccccc3C2)cc1	2.9%
CCOc1ccc(C(=O)N2CCN(c3cnn(-c4ccccc4)c(=O)c3Cl)CC2)cc1	i
O=C(Cc1ccccc1)NC(=S)Nc1ccc(-c2nc3ccccc3s2)c(O)c1	i
O=C(CSc1ncnc2scc(-c3ccc(Br)cc3)c12)NCc1ccccc1	i
COc1ccc(C=O)c(Cn2c(C)nc3ccccc32)c1	i
O=C(NC(=S)Nc1ccc(S(=O)(=O)Nc2ccccc2)cc1)c1ccco1	i
CCOc1cccc2cc(C(=O)N3CCN(C/C=C/c4ccccc4)CC3)c(=O)oc12	i
O=C(NCCNc1ccc(C(F)(F)F)cc1[N+](=O)[O-])c1cccs1	i
COc1ccc(N(CC(=O)Nc2ccccc2C(F)(F)F)S(C)(=O)=O)cc1OC	i
Cc1ccc(C(C)C)c(OCC(=O)Nc2ccc(I)cc2C(F)(F)F)c1	6.4%
COc1cc([N+](=O)[O-])c(Cl)cc1-c1ccc(/C=C(\C#N)c2nn(-c3ccccc3)c(N)c2C#N)o1	i
C=C(C)CN1CCN(c2c([N+](=O)[O-])c(=O)n(-c3ccccc3)c3ccccc23)CC1	i

(cont.)
mol	Mtb growth
CCOc1cc(C2NC(=O)NC(c3ccccc3)=C2C(C)=O)cc(I)c1O (stereo not drawn)	i
Cc1ccnc(NS(=O)(=O)c2ccc(Br)s2)c1	i
Cc1cccc(C(=O)N2CCN(C/C=C/c3ccccc3)CC2)c1	i
O=C(NCCN1CCOCC1)C(=O)Nc1ccccc1	i
O=C(c1ccco1)N1CCN(c2cnn(-c3ccccc3)c(=O)c2Cl)CC1	i
CCN(CC)S(=O)(=O)c1ccc(Cl)c(OC)c1	i
O=C(CCc1nc2ccccc2[nH]c1=O)OCc1c(F)cccc1Cl	u
COc1c(Cl)cc(Cl)cc1C(=O)NC(=S)Nc1ccccc1N1CCCC1	10.5%
CCOC(=O)c1c(-c2ccc(Cl)cc2)csc1NC(=O)COC	12.1%
COc1cccc(C(C)NC(=O)c2cccc(OC)c2OC)c1 (stereo not drawn)	i
COc1cccc(OC)c1OCC(O)CN1CCN(c2ccccc2F)CC1 (stereo not drawn)	i
Cc1ccc(NCC(O)COc2ccc(OCC(O)CNc3ccc(C)cc3)cc2)cc1 (stereo not drawn)	10.6%
COC(=O)c1ccc(Cl)c(NC(=O)CN(c2ccccc2)S(=O)(=O)N(C)C)c1	i
CC12CCC(=O)N1c1ccccc1C(=O)N2c1ccccc1 (stereo not drawn)	i
Cc1oc(-c2ccc3c(c2)OCCO3)cc1C(=O)O	3.8%
CC(C)(C)c1cc(Cl)ccc1OCCOCCN1CCCC1	u
COC(=O)C1=CN(C(C)C)C=C(C(=O)OC)C1c1ccc(C(F)(F)F)cc1	i
CCOc1cc(C2NC(=O)NC(C)=C2C(=O)Nc2ccc(C)c(C)c2)cc(I)c1OCC(N)=O (stereo not drawn)	i
COc1ccc(NC2CCN(C3CC(=O)N(c4ccc(F)c(Cl)c4)C3=O)CC2)cc1 (stereo not drawn)	i
CC(C)(C)OC(=O)NNC(=O)Nc1ccc(F)cc1F	i
CCN(CC)C/C=C/c1c(F)c(F)c(N2CCOCC2)c(F)c1F	i
Cc1c(NC(=O)COc2ccc(Cl)cc2Cl)c(=O)n(-c2ccccc2)n1C	i
CC1CCc2cc(NC(=O)c3ccc(Cl)cc3)sc2C1 (stereo not drawn)	3.7%
O=c1c(-c2cccc3ccccc23)c(C(F)(F)F)oc2cc(O)ccc12	3.5%
Cc1ccc(NC(=O)CCOc2ccccc2)c(Br)c1	i
COc1ccc(S(=O)(=O)Nc2ccc(O)c(-c3c(O)ccc4ccccc34)c2)cc1	0.5%
CC(=O)c1cccc(NC(=O)COC(=O)c2cc(C)nc3ccccc23)c1	i
O=C(O)CNC(=O)c1ccc2c(c1)C1C=CCC1C(c1ccc(F)cc1)N2 (stereo not drawn)	i
COc1ccc(S(=O)(=O)N(CC(=O)NC2CC3CCC2C3)c2ccccc2)cc1OC (stereo not drawn)	i
COc1ccccc1C(=O)Nc1ccc(S(=O)(=O)N2CCc3ccccc32)cc1	5.6%
NC(=O)c1ccccc1NC(=O)c1cc(Br)ccc1Cl	i
O=C(CCC(=O)OCC(F)(F)C(F)F)NCc1ccccc1	i
CCN(CC)C(=O)Cn1nnc(-c2ccccc2F)n1	i
CC(NC(=O)c1ccccc1NC(=O)c1ccc(N(C)S(C)(=O)=O)cc1)c1ccccc1 (stereo not drawn)	i
O=C(CN(Cc1cccc(Cl)c1)S(=O)(=O)c1ccc(Cl)cc1)NCc1ccccn1	0.0%
COc1ccc(CCNC(=O)CN2C(=O)c3cccc4cccc2c34)cc1OC	i
CC(C)CCn1c(Oc2ccccc2F)nc2c1c(=O)n(C)c(=O)n2C	i
CCc1cccc(C)c1NC(=O)CCC(=O)Nc1c(C)cccc1CC	i
NC(=O)NC(c1ccccc1)c1ccc(Cl)cc1Cl (stereo not drawn)	i
CCn1c(SCC(=O)N2CCCCC2)nc2ccccc2c1=O	i
CS(=O)(=O)N(CCc1ccccc1)CC(=O)N1CCN(c2ccccc2)CC1	i
CCOC(=O)C1C(=O)CC(C)(O)C(C(=O)OCC)C1c1ccc(C)s1 (stereo not drawn)	i
COc1cc(OC)c(C(=O)Nc2ccc(N(C)C)cc2)cc1OC	i
COc1ccc(S(=O)(=O)N2CCCC(C(=O)NC(C)C)C2)cc1 (stereo not drawn)	i
Cc1cc(OCC(=O)NCCN2CCOCC2)ccc1Br	i
Cc1ccccc1CN1CCC(N2CCN(c3ccccc3)CC2)CC1	i
CC1(C)Cc2c(sc3nc(SCC(=O)c4ccc(Cl)cc4)nc(N)c23)CS1	0.4%
O=C1NC(=O)C2C1C(c1cccs1)=NN2Cc1ccccc1 (stereo not drawn)	0.3%
COC(=O)c1sccc1NC(=O)Cc1ccc(Br)cc1	i
CC(Oc1ccccc1)C(=O)Nc1ccc(S(=O)(=O)NCC2CCCO2)cc1 (stereo not drawn)	i
Fc1ccccc1CN1CCN(CC2CC=CCC2)CC1 (stereo not drawn)	i
CCSc1nnc(NC(=O)c2ccc3c(c2)OCO3)s1	2.8%
Cc1onc(-c2ccccc2Cl)c1C(=O)Nc1ccccc1Br	i
COc1ccccc1NC(=O)c1cc(C)oc1C	i
Cc1ccc(SCC(=O)Nc2cc(C(=O)O)cc(C(=O)O)c2)cc1	i
CCc1cc(-c2[nH]ncc2-c2cnn(-c3ccccc3)c2)c(O)cc1O	i
CCC(=O)Nc1ccc(-c2cn3ccccc3n2)cc1	i
S=C(NCc1ccco1)N1CCOCC1	i
CCC(C)c1ccc(O)c(NC(=S)NC(=O)CC(C)C)c1 (stereo not drawn)	u
COc1ccccc1NC(=O)CC(O)(C(F)(F)F)C(F)(F)F	3.0%

(list continues)
mol	Mtb growth
O=C(Nc1ccccc1)NC1c2ccccc2Oc2ccccc21	i
O=C(CSc1nc(-c2ccccc2)cc(C(F)(F)F)n1)N1CCN(c2ccc(F)cc2)CC1	4.2%
Nc1c(C(=O)N(c2ccccc2)c2ccccc2)sc2[nH]c(=O)c(C(=O)O)cc12	i
Cc1nc(NC(=O)c2cccc(Cl)c2)ccc1Br	6.2%
CC(C)OCC(O)CN1CCN(c2ccccc2)CC1 (stereo not drawn)	i
CC1CCN(CC(=O)Nc2ccc(Br)cc2)CC1	i
Oc1c(Cl)cc(Cl)cc1CNc1cnc2ccccc2c1	i
O=C(CCCc1nc2ccccc2s1)Nc1ccccc1	i
CC(=O)c1ccc(NC(=O)c2sc3nc(C)c(C)c(C)c3c2N)cc1	i
CCOC(=O)COc1ccc2c(=O)c(-c3ccc(OC)cc3)c(C(F)(F)F)oc2c1C	10.9%
CSc1nnc2c3cc(C)ccc3n(C)c2n1	i
Cc1cc(C)n(CC(O)CN(c2ccccc2)S(=O)(=O)c2ccccc2)n1 (stereo not drawn)	3.7%
Fc1ccc(-n2c(-c3ccccc3Cl)n[nH]c2=S)cc1Cl	i
CCc1c(C)sc(NC(=O)c2cccc([N+](=O)[O-])c2C)c1C(=O)OC	1.9%
Cc1ccc(C(=O)Oc2ccc3c(-c4ccccc4)cc(=O)oc3c2)cc1	i
Cc1cc(=O)c2ccccc2n1CC(=O)NCc1ccccc1	u
CCCCSc1ncnc2sc3c(c12)CCCC3	i
CCNC(=S)N1CCN(S(=O)(=O)c2ccc(Cl)cc2)CC1	i
COc1ccc(OC)c(S(=O)(=O)N2CCN(c3ccc(C)c(Cl)c3)CC2)c1	6.2%

Given field by field: part of the list above
canonical_smiles: Oc1c(Cl)cc(Cl)cc1CNc1cnc2ccccc2c1
- Mtb growth: i
canonical_smiles: CCCCSc1ncnc2sc3c(c12)CCCC3
- Mtb growth: i
canonical_smiles: CSc1nnc2c3cc(C)ccc3n(C)c2n1
- Mtb growth: i
canonical_smiles: CCc1c(C)sc(NC(=O)c2cccc([N+](=O)[O-])c2C)c1C(=O)OC
- Mtb growth: 1.9%

This is a subset. The share of hits here may be higher or lower than overall.
